FGF22 binding = binders of human FGF22 protein, primary screen, FGF22 synaptogenesis inhibitor project, biophysical, thermal shift, single point | Fibroblast growth factor 22 (Homo sapiens), Q9HCT0 | recombinant FGF22 thermal shift, SYPRO orange fluorescence; percent of sucrose octasulfate shift, DMSO zero | calls only at 9.99 µM | 1.5% of 340,000 active | AID 651658, 2012;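 active means melting point raised past a set limit in the mean and every replicate; inconclusive means no clear call; three in four hits are not shown here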
Target sequence (Q9HCT0 whole entry, looked up): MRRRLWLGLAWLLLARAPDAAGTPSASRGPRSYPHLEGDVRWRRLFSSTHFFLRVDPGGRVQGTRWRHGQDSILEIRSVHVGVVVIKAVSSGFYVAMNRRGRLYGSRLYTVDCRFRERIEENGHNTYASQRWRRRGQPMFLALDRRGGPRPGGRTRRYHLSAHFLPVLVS
MLL AF4-AF9 inh = inhibitors of AF4 peptide binding to AF9, primary screen, biochemical, AlphaScreen, biotin-AF4 peptide, FLAG-AF9, single point; Protein AF-9 (Homo sapiens), P42568; 0.47% of 350,000 active; inhibition, % at 10 µM;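 active means every replicate reaching a set inhibition limit, whatever the replicate mean, cut at about 25% in these data; inconclusive means mean inhibition reaches that limit but some replicates miss it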;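 further: 0% = plate neutral control median and 100% = total signal loss; the record names both 10 and 1 µM as test concentration; the first replicate is given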
Target sequence (P42568 whole entry, looked up): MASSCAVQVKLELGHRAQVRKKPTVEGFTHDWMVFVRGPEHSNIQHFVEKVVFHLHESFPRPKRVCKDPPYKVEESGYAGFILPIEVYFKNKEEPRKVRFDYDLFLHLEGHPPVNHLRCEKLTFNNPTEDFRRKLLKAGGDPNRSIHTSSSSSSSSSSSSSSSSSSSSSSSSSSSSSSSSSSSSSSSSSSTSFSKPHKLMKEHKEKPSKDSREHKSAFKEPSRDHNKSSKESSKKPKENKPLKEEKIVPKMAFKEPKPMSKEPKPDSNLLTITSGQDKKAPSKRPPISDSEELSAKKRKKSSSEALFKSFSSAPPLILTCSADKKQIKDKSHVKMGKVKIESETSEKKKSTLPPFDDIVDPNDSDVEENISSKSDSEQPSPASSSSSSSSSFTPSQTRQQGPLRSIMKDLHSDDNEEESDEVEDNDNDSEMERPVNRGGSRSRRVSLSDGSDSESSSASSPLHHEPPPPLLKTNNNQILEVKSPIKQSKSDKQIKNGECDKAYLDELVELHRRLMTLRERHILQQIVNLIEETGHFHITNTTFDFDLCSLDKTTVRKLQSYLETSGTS
rRNA inh HTS = reduced GFP signal of wild-type E. coli, primary screen, bacterial rRNA inhibitor project, GFP/RFP fluorescence, OD600, single point | 1.6% of 350,000 active | E. coli WT GFP vs humanized-ribosome RFP mutants, 24 h; stronger effect = lower value; DMSO median 0, no signal -100 | GFP signal change (wild-type ribosome), % (no concentration beside the values);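 active means significant combined selectivity score with lowered wild-type GFP, culture density cut under 30%, mutant RFP and density less affected; inactive means any of these conditions unmet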; further: one replicate is shown; some compounds called inactive have numbers as strong as hits
ALR H2O2 inh = inhibitors of human ALR sulfhydryl oxidase, primary screen, biochemical, H2O2 detection, HRP-luminol luminescence, single point. FAD-linked sulfhydryl oxidase ALR (Homo sapiens), P55789. purified ALR, DTT oxidation. inhibition, % (test concentration not listed). 3.8% of 290,000 active. AID 485317, 2010;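 active means mean and each replicate at 75% or more; inconclusive means only one of the two met; inactive means neither met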;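 further: stock transfer was 7.5 nL into about 7.5 µL; 0% = neutral wells and 100% = wells with inactivated enzyme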
Target sequence (P55789 whole entry, looked up): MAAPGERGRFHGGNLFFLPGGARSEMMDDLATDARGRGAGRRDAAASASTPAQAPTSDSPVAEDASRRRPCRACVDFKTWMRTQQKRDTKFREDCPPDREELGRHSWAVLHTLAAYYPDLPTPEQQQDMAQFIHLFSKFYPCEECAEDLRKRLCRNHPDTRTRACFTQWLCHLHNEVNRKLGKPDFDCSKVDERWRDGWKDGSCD
E coli growth = E. coli growth inhibition, primary screen, OD600; Escherichia coli growth, 23 h; stronger effect = lower value; AID 1053175, 2014; OD600 absorbance (concentration not given with the values); 0.21% of 330,000 active;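 active means OD600 absorbance below the run mean of sample wells minus 3.6 SD, in any replicate, cut at about 0.56 in these data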;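 further: stock transfer was 300 nL into about 60 µL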
HNF4A DNA FP = change in binding of human HNF4A to DNA, primary screen, biochemical, fluorescence polarization, FITC-DNA; Hepatocyte nuclear factor 4-alpha (Homo sapiens), P41235; 0.3% of 360,000 active; 1 h; activity change, % at 10 µM; in the data active means activity change above about 30%, passing the limit was not always enough;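 further: controls were the assay level and a saturating level of protein; the project sought stronger binding though the title names inhibitors; some compounds called inactive have numbers as strong as hits; positive values seem to mean higher polarization but the record does not say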
Vif A3G = inhibitors of Vif binding to APOBEC3G peptide, primary screen, biochemical, TR-FRET, GST-Vif 1-94, biotin-A3G peptide, dose response retest (AID 1117319); 0.57% of 260,000 active; Virion infectivity factor (Human immunodeficiency virus type 1 group M subtype B (isolate …; TR-FRET GST-Vif / biotin-A3G peptide binding; higher % means a stronger effect; test concentration not given here; strong numbers were not always called active; inhibition, %, or IC50 in µM where a hit was titrated;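 active means above the screen mean plus three standard deviations and confirmed in dose response; inconclusive means results disagree or hit not tested in dose response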;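 further: Vif residues 1-94 fused to GST binding biotinylated APOBEC3G peptide 110-148; 0% = full assay without inhibitor and 100% = GST in place of GST-Vif; retest series ran down from 100 µM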
rRNA inh HTS OD600 = further read-out of rRNA inh HTS, marked with its call; OD600 change, %; measured here: OD600 growth;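 optical density of the mix in the first replicate; 0 = DMSO median and -100 = no signal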
rRNA inh HTS RFP = second read-out of rRNA inh HTS, no call of its own (marks repeat the call); RFP signal change, %; measured here: RFP humanized mutant strains;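 first replicate; 0 = DMSO median and -100 = no signal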
* hit, by the source's call.

What do the screens show for `Cc1ccc2oc(=O)c(/C=C(\O)c3cccs3)nc2c1`?
FGF22 binding: inactive; MLL AF4-AF9 inh: 0.0; rRNA inh HTS: -6.1; ALR H2O2 inh: 3.0; E coli growth: 0.69; HNF4A DNA FP: 12.1; Vif A3G: 0.3%; rRNA inh HTS OD600: -4.4; rRNA inh HTS RFP: 1.4

How did COc1ccc(CCNC(=O)Cc2cc3c(cc2[N+](=O)[O-])OCO3)cc1OC do in these assays?
FGF22 binding: inactive; MLL AF4-AF9 inh: -5.6; rRNA inh HTS: -8.2; HNF4A DNA FP: 1.6; Vif A3G: -2.6%; rRNA inh HTS OD600: 8.9; rRNA inh HTS RFP: 0.5

How did CCC(NS(=O)(=O)c1ccc(C)cc1)C(=O)O (centres undefined) do in these assays?
ALR H2O2 inh: -1.1; E coli growth: 0.67; HNF4A DNA FP: 2.5; Vif A3G: -2.7%

Results for CC(C)(C)NS(=O)(=O)c1ccc(CCC(=O)NCc2ccc3c(c2)OCO3)cc1 ?
ALR H2O2 inh: -6.1; E coli growth: 0.657; HNF4A DNA FP: 15.8; Vif A3G: 5.5%

Results for COc1nc(NCCC2=CCCCC2)nc(OC)n1 ?
ALR H2O2 inh: 1.7; E coli growth: 0.747; HNF4A DNA FP: 1.3; Vif A3G: -1.4%

Results for Cc1cc2ncn(CC(O)COC3CCCCC3)c2cc1C (centres undefined) ?
ALR H2O2 inh: -8.4; E coli growth: 0.767; HNF4A DNA FP: 1.2; Vif A3G: 0.7%

Results for CCC(=O)N1[C@@H]2c3cccc(=O)n3C[C@H]1[C@H](CO)[C@H]2C(=O)NCc1ccccc1 ?
FGF22 binding: inactive; MLL AF4-AF9 inh: -0.5; rRNA inh HTS: 2.2; rRNA inh HTS OD600: 5.1; rRNA inh HTS RFP: -1.7

How did CNC(=O)/C(C#N)=C/c1c(N2CCN(c3cccc(Cl)c3)CC2)nc2c(C)cccn2c1=O do in these assays?
FGF22 binding: inactive; MLL AF4-AF9 inh: 2.7; rRNA inh HTS: 8.4; ALR H2O2 inh: -14.3; E coli growth: 0.676; HNF4A DNA FP: 11.0; Vif A3G: -3.4%; rRNA inh HTS OD600: 5.8; rRNA inh HTS RFP: 5.0

What do the screens show for `COCC(=O)N(C)C[C@H]1Oc2ncc(C#Cc3ccc(OC)cc3)cc2C(=O)N([C@@H](C)CO)C[C@H]1C`?
FGF22 binding: inactive; MLL AF4-AF9 inh: -1.5; rRNA inh HTS: -0.3; rRNA inh HTS OD600: -4.0; rRNA inh HTS RFP: -2.5

How did Cn1c(N=NC(=O)c2ccccc2)c(O)c2ccccc21 do in these assays?
ALR H2O2 inh: -6.5; E coli growth: 0.624; HNF4A DNA FP: 1.6; Vif A3G: -1.6%

How did CCCn1c(=O)c(C(=O)NNS(=O)(=O)c2ccc(NC(=O)OC)cc2)c(O)c2ccccc21 do in these assays?
FGF22 binding: inactive; MLL AF4-AF9 inh: 1.0; rRNA inh HTS: -8.9; E coli growth: 0.712; HNF4A DNA FP: 0.8; Vif A3G: -10.9%; rRNA inh HTS OD600: 2.5; rRNA inh HTS RFP: 7.5

What do the screens show for `O=C(O)c1cnc(-c2ccccc2)nc1C(F)(F)F`?
FGF22 binding: inactive; MLL AF4-AF9 inh: -1.7; rRNA inh HTS: 11.6; ALR H2O2 inh: -4.2; E coli growth: 0.639; HNF4A DNA FP: 5.2; Vif A3G: -4.5%; rRNA inh HTS OD600: 14.1; rRNA inh HTS RFP: -0.7

How did O=C(Cn1cc(C(F)(F)F)ccc1=O)NCC1CCCO1 (centres undefined) do in these assays?
FGF22 binding: inactive; MLL AF4-AF9 inh: -5.7; rRNA inh HTS: 4.3; ALR H2O2 inh: -2.3; E coli growth: 0.72; HNF4A DNA FP: 2.8; Vif A3G: -2.0%; rRNA inh HTS OD600: 8.4; rRNA inh HTS RFP: -2.9

What do the screens show for `CCNc1nnc(CSc2nc3ccccc3s2)s1`?
ALR H2O2 inh: -10.7; E coli growth: 0.68; HNF4A DNA FP: 2.9; Vif A3G: -1.1%

Results for Cc1ccc(NC(=O)Cn2nc(C)c(S(=O)(=O)N(C)C)c2C)cc1 ?
FGF22 binding: inactive; MLL AF4-AF9 inh: 3.3; rRNA inh HTS: -0.7; ALR H2O2 inh: -3.7; E coli growth: 0.661; HNF4A DNA FP: -0.2; Vif A3G: -10.3%; rRNA inh HTS OD600: -5.0; rRNA inh HTS RFP: -2.9

What do the screens show for `Cc1ccccc1-c1cc(C(=O)Nc2nc3c(s2)CCCC3)c2ccccc2n1`?
ALR H2O2 inh: -8.7; E coli growth: 0.704; HNF4A DNA FP: -0.6; Vif A3G: -7.0%

Results for Cc1ccc(C2CC(c3cccc(Br)c3)n3nc(N)nc3N2)cc1 (centres undefined) ?
FGF22 binding: inactive; MLL AF4-AF9 inh: 0.3; rRNA inh HTS: -8.0; ALR H2O2 inh: -7.4; E coli growth: 0.778; HNF4A DNA FP: 3.8; Vif A3G: -0.1%; rRNA inh HTS OD600: -22.5; rRNA inh HTS RFP: -1.8

Results for O=C(/C=C/c1ccco1)N(c1ccccn1)c1ccccn1 ?
FGF22 binding: inactive; MLL AF4-AF9 inh: -2.2; rRNA inh HTS: 17.6; ALR H2O2 inh: -3.3; E coli growth: 0.679; HNF4A DNA FP: -59.0; Vif A3G: 3.05µM*; rRNA inh HTS OD600: 18.8; rRNA inh HTS RFP: 0.1

How did COc1ccccc1CNC(=O)C[C@@H]1CC[C@@H](NC(C)=O)[C@@H](CO)O1 do in these assays?
FGF22 binding: inactive; MLL AF4-AF9 inh: -2.0; rRNA inh HTS: 1.4; rRNA inh HTS OD600: 1.9; rRNA inh HTS RFP: 5.2

Results for Cc1ccccc1/C=c1\s/c(=C\C(=O)C(C)(C)C)[nH]c1=O ?
ALR H2O2 inh: -1.2; HNF4A DNA FP: 1.7; Vif A3G: 1.7%

Results for O=S(=O)(Nc1ccc(Cc2ccncc2)cc1)c1ccc(Cl)cc1 ?
MLL AF4-AF9 inh: -2.3; rRNA inh HTS: 7.9; E coli growth: 0.694; HNF4A DNA FP: 3.1; rRNA inh HTS OD600: 1.1; rRNA inh HTS RFP: -0.6

How did COCc1c(C(=O)N/N=C/c2ccco2)nnn1-c1nonc1N do in these assays?
FGF22 binding: inactive; MLL AF4-AF9 inh: -3.3; rRNA inh HTS: 3.6; HNF4A DNA FP: -3.4; rRNA inh HTS OD600: 2.4; rRNA inh HTS RFP: -3.2

How did CC1CCC2(CC1)NC(=O)N(NC(=O)C1CCN(C(=O)c3ccc(Cl)cc3)CC1)C2=O (centres undefined) do in these assays?
FGF22 binding: inactive; MLL AF4-AF9 inh: inconclusive; rRNA inh HTS: 3.2; E coli growth: 0.699; HNF4A DNA FP: 0.4; Vif A3G: 8.7%; rRNA inh HTS OD600: 5.4; rRNA inh HTS RFP: -1.2

How did C[C@@H]1CCCCO[C@@H](CN(C)C(=O)Nc2ccc3c(c2)OCO3)[C@H](C)CN([C@H](C)CO)C(=O)c2cc(NS(=O)(=O)c3cccs3)ccc2O1 do in these assays?
FGF22 binding: inactive; MLL AF4-AF9 inh: 3.8; rRNA inh HTS: 0.3; rRNA inh HTS OD600: 0.7; rRNA inh HTS RFP: 3.8

How did O=C1/C(=C/c2cccc(Cl)c2)CSc2sccc21 do in these assays?
FGF22 binding: inactive; MLL AF4-AF9 inh: -4.1; rRNA inh HTS: -14.4; ALR H2O2 inh: -1.4; E coli growth: 0.665; HNF4A DNA FP: -0.2; rRNA inh HTS OD600: -15.4; rRNA inh HTS RFP: 1.4

Results for CCOC(=O)C1=C(CC)Nc2ccccc2N/C1=N\S(=O)(=O)c1ccc2ccccc2c1 ?
FGF22 binding: inactive; MLL AF4-AF9 inh: -1.8; rRNA inh HTS: -14.1; E coli growth: 0.72; HNF4A DNA FP: 2.4; Vif A3G: 0.3%; rRNA inh HTS OD600: -9.3; rRNA inh HTS RFP: -2.1

How did Cn1nccc1C(=O)Nc1ccc(S(=O)(=O)N2CCCC2)cc1 do in these assays?
FGF22 binding: inactive; MLL AF4-AF9 inh: -2.2; rRNA inh HTS: -0.8; ALR H2O2 inh: -4.0; HNF4A DNA FP: 0.6; rRNA inh HTS OD600: 3.3; rRNA inh HTS RFP: 1.4

Results for CC(=O)C(C(C)=O)C1(O)C(=O)c2ccccc2C1=O ?
FGF22 binding: inactive; MLL AF4-AF9 inh: -9.4; rRNA inh HTS: 6.8; ALR H2O2 inh: 33.7; E coli growth: 0.656; HNF4A DNA FP: -2.9; rRNA inh HTS OD600: 6.6; rRNA inh HTS RFP: 1.9

Results for O=C(NC1CCN(Cc2cccc([N+](=O)[O-])c2)CC1)c1ccccc1 ?
FGF22 binding: inactive; MLL AF4-AF9 inh: -2.1; rRNA inh HTS: 0.8; E coli growth: 0.647; HNF4A DNA FP: -1.4; Vif A3G: 2.9%; rRNA inh HTS OD600: 1.6; rRNA inh HTS RFP: -1.5

How did COc1cc(OC)cc(-c2oc(=O)c3cc(OC)c(OC)cc3c2/C=C/c2ccc(F)cc2)c1 do in these assays?
FGF22 binding: inactive; MLL AF4-AF9 inh: inconclusive; rRNA inh HTS: 1.9; ALR H2O2 inh: -2.2; HNF4A DNA FP: 3.3; rRNA inh HTS OD600: 16.2; rRNA inh HTS RFP: 5.2

What do the screens show for `O=C(CN(CCO)Cc1ccccc1)N1CCN(S(=O)(=O)c2ccccc2)CC1`?
FGF22 binding: inactive; MLL AF4-AF9 inh: 1.4; rRNA inh HTS: 8.8; HNF4A DNA FP: 1.3; Vif A3G: 0.5%; rRNA inh HTS OD600: 9.8; rRNA inh HTS RFP: -0.6

Results for c1ccc(Cn2c(CNc3nc4ccccc4n3CCN3CCCCC3)nc3ccccc32)cc1 ?
ALR H2O2 inh: 2.3; E coli growth: 0.734; HNF4A DNA FP: -2.1; Vif A3G: 17.7%

Results for Cc1csc(NC(=O)CSc2nc(=O)n(CCCN(C)C)c3c2CCC3)n1 ?
MLL AF4-AF9 inh: -1.8; rRNA inh HTS: 9.3; ALR H2O2 inh: -271.9; E coli growth: 0.661; HNF4A DNA FP: 2.3; Vif A3G: -7.2%; rRNA inh HTS OD600: 7.4; rRNA inh HTS RFP: 0.2

How did O=C(COC(=O)c1ncc(Cl)c(Cl)c1Cl)Nc1cccnc1Cl do in these assays?
FGF22 binding: inactive; MLL AF4-AF9 inh: 2.9; rRNA inh HTS: 2.8; ALR H2O2 inh: 0.4; E coli growth: 0.643; HNF4A DNA FP: 3.2; Vif A3G: -4.5%; rRNA inh HTS OD600: 18.5; rRNA inh HTS RFP: 2.0

How did O=C(C1CCC1)N1CCN(S(=O)(=O)c2cc(F)ccc2F)CC1 do in these assays?
FGF22 binding: inactive; MLL AF4-AF9 inh: 0.7; rRNA inh HTS: 2.8; E coli growth: 0.708; HNF4A DNA FP: -1.9; Vif A3G: 8.8%; rRNA inh HTS OD600: 6.6; rRNA inh HTS RFP: -0.1

How did O=C1NCC(COc2ccc(Cl)cc2)O1 (centres undefined) do in these assays?
FGF22 binding: inactive; MLL AF4-AF9 inh: 0.4; rRNA inh HTS: 12.8; ALR H2O2 inh: 23.4; E coli growth: 0.637; HNF4A DNA FP: -1.3; Vif A3G: -2.8%; rRNA inh HTS OD600: 6.9; rRNA inh HTS RFP: -0.6

Compound activity (PubChem BioAssay)

An excerpt; count on the stated rates, not on these rows.
